# T cruzi repl: T. cruzi replication inhibition; AID 1885; inhibition, % (no concentration beside the values); T. cruzi beta-gal in NIH3T3, luminescence, 90 h; actives 1.4% (n = 300,000);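 active = mean inhibition across valid replicates above about 55%, limit read from the data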;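 also: signal also drops with host cell toxicity which is not excluded here; 0% = plate median of DMSO wells and 100% = zero luminescence signal; higher percent means less beta-gal luminescence so fewer parasites; stock transfer was 50 nL into about 50 µL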
# AF4-AF9 inh: blocks AF4 peptide binding to human AF9; AlphaScreen, biotin-AF4 peptide binding to FLAG-AF9; inhibition, % at 10 µM; P42568; actives 0.47% (n = 350,000);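 active = every replicate reaching a set inhibition limit, whatever the replicate mean, cut at about 25% in these data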;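 also: 0% = plate neutral control median and 100% = total signal loss; the record names both 10 and 1 µM as test concentration; the first replicate is given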
# Target sequence (P42568 whole entry, looked up): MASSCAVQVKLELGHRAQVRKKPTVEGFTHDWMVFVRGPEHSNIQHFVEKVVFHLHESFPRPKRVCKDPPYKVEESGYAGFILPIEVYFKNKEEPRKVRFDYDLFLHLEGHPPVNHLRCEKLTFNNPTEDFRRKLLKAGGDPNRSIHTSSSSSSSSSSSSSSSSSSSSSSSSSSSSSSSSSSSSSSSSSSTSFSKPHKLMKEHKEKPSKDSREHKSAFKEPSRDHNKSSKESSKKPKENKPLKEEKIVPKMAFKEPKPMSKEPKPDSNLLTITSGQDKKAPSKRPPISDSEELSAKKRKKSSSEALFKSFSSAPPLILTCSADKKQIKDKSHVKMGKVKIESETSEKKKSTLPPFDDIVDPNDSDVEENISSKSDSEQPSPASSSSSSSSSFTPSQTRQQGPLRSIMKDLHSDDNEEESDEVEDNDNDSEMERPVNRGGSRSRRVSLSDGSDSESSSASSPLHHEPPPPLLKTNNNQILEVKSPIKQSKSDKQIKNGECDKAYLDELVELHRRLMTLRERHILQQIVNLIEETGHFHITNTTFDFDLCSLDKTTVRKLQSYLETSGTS
# FGF22 binding: FGF22 (human) thermal shift binding; actives 1.5% (n = 340,000); calls only at 9.99 µM; recombinant FGF22 thermal shift, SYPRO orange fluorescence; percent of sucrose octasulfate shift, DMSO zero; AID 651658;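 active = melting point raised past a set limit in the mean and every replicate; three in four hits are not shown here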
# Target sequence (Q9HCT0 whole entry, looked up): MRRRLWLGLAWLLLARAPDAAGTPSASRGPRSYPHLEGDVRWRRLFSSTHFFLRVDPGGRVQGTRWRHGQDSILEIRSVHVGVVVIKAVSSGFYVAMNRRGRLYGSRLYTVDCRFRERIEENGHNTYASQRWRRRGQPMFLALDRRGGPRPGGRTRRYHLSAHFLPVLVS
# E coli growth: E. coli growth inhibition; OD600 absorbance (no concentration beside the values); actives 0.21% (n = 330,000); Escherichia coli growth, OD600, 23 h; stronger effect = lower value;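 active = OD600 absorbance below the run mean of sample wells minus 3.6 SD, in any replicate, cut at about 0.56 in these data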;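 also: stock transfer was 300 nL into about 60 µL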
# A1 inh: inhibitors of the anti-apoptotic protein A1, read as caspase activation; MEF A1-2A-BIM cells, Caspase-Glo 3/7 luminescence, 3 h; percent of clofoctol response, vehicle zero; caspase activation, % (no concentration beside the values); actives 0.066% (n = 330,000);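 active = over half of replicate activation scores above 10%, or exactly half above 10 with the replicate mean above 10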;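 also: wells of about 30 µL received 50 nL stock; many hits fall short of the cut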
# UCH37 inh: human UCH37 deubiquitinating enzyme inhibition. AID 588478. actives 0.33% (n = 330,000). purified proteasome/UCH37, Ub-AMC cleavage fluorescence. inhibition, % (no concentration beside the values). Q9Y5K5;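 active = mean of two replicates above 20%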;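 also: 0% = compound-free wells with enzyme and 100% = wells lacking proteasome; stock transfer was 100 nL into about 20 µL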
# Target sequence (Q9Y5K5 whole entry, looked up): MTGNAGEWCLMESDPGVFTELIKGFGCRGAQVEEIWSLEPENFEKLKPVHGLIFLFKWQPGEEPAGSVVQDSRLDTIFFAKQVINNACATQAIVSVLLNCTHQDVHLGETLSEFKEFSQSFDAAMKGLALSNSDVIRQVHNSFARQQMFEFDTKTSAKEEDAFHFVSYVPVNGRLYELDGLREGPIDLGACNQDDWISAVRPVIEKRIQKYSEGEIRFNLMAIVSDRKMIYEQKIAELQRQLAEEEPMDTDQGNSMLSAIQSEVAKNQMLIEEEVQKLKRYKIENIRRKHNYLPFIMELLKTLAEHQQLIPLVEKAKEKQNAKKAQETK
#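 Test system – human UCH37 enzyme supplied as purified proteasome complex · Incubation – 30 min preincubation with enzyme, 25 min cleavage at room temperature · Detection – AMC fluorescence from Ub-AMC cleavage, excitation 355 nm, emission 460 nm · Benchmarks – no-proteasome wells (full inhibition) and compound-free wells (no inhibition)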
# Ecoli rRNA inh: inhibitors of bacterial rRNA selective over humanized ribosomes. E. coli WT GFP vs humanized-ribosome RFP mutants, fluorescence, 24 h; stronger effect = lower value; DMSO median 0, no signal -100. GFP signal change (wild-type ribosome), % (test concentration not listed). actives 1.6% (n = 350,000);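 active = significant combined selectivity score with lowered wild-type GFP, culture density cut under 30%, mutant RFP and density less affected; inactive = any of these conditions unmet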; also: one replicate is shown; some compounds called inactive have numbers as strong as hits
# Beta cell apopt: beta cell apoptosis inhibition. INS-1E cytokine-induced death, ATP luminescence, 48 h; percent of positive-control rescue, neutral wells zero. protection from apoptosis, % (concentration not given with the values). actives 0.8% (n = 300,000). AID 435005;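 active = all replicates at 75% or more, or half of them and the mean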;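 also: 0% = cytokine-treated negative control wells and 100% = positive control rescue; higher means more ATP so stronger rescue from cytokine killing; wells of about 40 µL received 100 nL stock; the first replicate is given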
# Ecoli rRNA inh OD600: also measured in Ecoli rRNA inh; calls as there; OD600 change, %; measured here: OD600 growth;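 optical density of the mix in the first replicate; 0 = DMSO median and -100 = no signal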
# Ecoli rRNA inh RFP: also measured in Ecoli rRNA inh; calls as there; RFP signal change, %; measured here: RFP humanized mutant strains;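 first replicate; 0 = DMSO median and -100 = no signal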
# Numbers without * were called inactive; i = inactive; . = no result given; + = active, no number. A portion of the library; count on the stated rates, not on these rows.
SMILES,T cruzi repl,AF4-AF9 inh,FGF22 binding,E coli growth,A1 inh,UCH37 inh,Ecoli rRNA inh,Ecoli rRNA inh OD600,Ecoli rRNA inh RFP,Beta cell apopt
Cc1cccc(-c2nsc(SCC(=O)c3ccc(Cl)cc3)n2)c1,13,-4.4,i,0.72,-0.6,0.8,-3,2,-3.5,-6
Brc1ccc2[nH]ncc2c1,-22,.,.,0.73,-0.5,2.9,.,.,.,-8
NC(=O)CSc1nc2ccccc2n1Cc1ccccc1,2,.,.,0.69,-2.0,2.8,.,.,.,2
O=Cc1cn(CCOc2ccccc2F)c2ccccc12,-3,-3.2,i,0.69,-0.5,-2.0,-42*,-31*,-8.3*,-6
CCOc1ccc(C(CCc2ccccc2)NC(=O)c2ccccc2OC)cc1OCC (stereo not given),35,9.8,i,0.64,0.3,2.1,7,16,0.6,3
Cc1ccc(O)c(C2=Nc3ccccc3N=C(c3ccc([N+](=O)[O-])cc3)C2)c1,-4,.,.,0.7,0.3,1.8,.,.,.,11
CCc1ccc(CN(C)CCc2ccccn2)cc1,63*,-45,i,0.72,0.3,2.7,10,7,-6.6,-4
CC(Oc1ccccc1)C(=O)N=Nc1c(O)[nH]c2ccc([N+](=O)[O-])cc12 (stereo not given),-7,7.8,i,0.57,-0.2,67*,1,-5,-3.0,1
O=C1c2ccccc2C(=O)N1CCc1ccccc1,19,-1.2,i,0.67,-2.0,6.7,-5,4,-2.6,2
COc1ccc(C(=O)NCCc2cn3ccccc3n2)cc1,2,-22,i,0.64,-0.7,-2.0,-9,-8,-9.5,-4
c1coc(CSSCc2ccco2)c1,.,-7.1,i,0.7,2.0,3.7,12,14,1.2,-6
CC12CN(C(=O)c3ccc([N+](=O)[O-])cc3)CC(C)(CN(C(=O)c3ccc([N+](=O)[O-])cc3)C1)C2=O,7,.,i,0.64,-0.2,1.1,9,2,2.8,2
CCOc1ccc(S(=O)(=O)N(CC(=O)NCC2CCCO2)c2ccc(F)cc2)cc1 (stereo not given),-6,-2.3,i,0.64,-0.7,-0.2,-3,-4,1.9,-5
Cc1ccc(NC(=O)CSc2nnc(NC(=O)C3CC3)s2)cc1C,2,-4.2,i,0.68,0.0,-0.2,0,-1,0.1,-4
O=c1c2[nH]c3ccccc3c2ncn1Cc1ccncc1,-8,.,.,0.68,0.8,1.7,.,.,.,.
Cc1ccc(-c2c[nH]c(=S)n2-c2ccccc2)cc1,-10,-0.5,i,0.68,-0.7,1.6,-3,-7,-1.5,-3
CC(=O)Nc1ccc(S(=O)(=O)Nc2cccc(-c3cn4c(n3)SCC4)c2)cc1,0,3.9,i,0.73,1.8,1.8,2,-4,-0.4,5
Cc1ccc(NC(=S)N(CCN(C)C)Cc2cc3cccc(C)c3[nH]c2=O)cc1,6,4.4,i,0.7,-0.4,5.9,1,-1,12,-6
CCOc1nc(NCCN2CCOCC2)nc(Nc2ccc([N+](=O)[O-])cc2)n1,14,-2.2,i,0.71,-0.9,9.9,9,15,-0.1,8
C#Cc1ccc([C@H]2C=C(C(=O)O)O[C@@H](OCCCCO)C2)cc1,-25,.,.,.,2.0,0.6,.,.,.,-2
CCN1CCCC1CNC(=O)c1ccc(Sc2ccccc2Cl)c([N+](=O)[O-])c1 (stereo not given),28,15,.,0.72,0.5,5.1,-11,-9,-2.5,9
Nc1nonc1C(=O)NCCN=Cc1cc(Cc2ccccc2)cc(Br)c1O,-28,.,.,0.59,-0.6,2.7,.,.,.,-3
COc1ccccc1NC(=O)C1CCCN(S(=O)(=O)c2ccccc2)C1 (stereo not given),15,-0.7,i,0.65,1.5,1.9,-13,-14,0.9,-1
N=C1SCC(=O)N1c1nc(-c2ccccc2)cs1,-25,.,.,0.7,-6.5,-13,.,.,.,-7
CC1CCCN(CCCNS(=O)(=O)c2ccc3c(c2)CCN3C(=O)C2CC2)C1 (stereo not given),19,1.1,i,0.71,-1.8,0.1,7,11,-2.9,2

# Overlap with the part before: 5 compounds; new compounds follow.
SMILES,T cruzi repl,AF4-AF9 inh,FGF22 binding,E coli growth,A1 inh,UCH37 inh,Ecoli rRNA inh,Ecoli rRNA inh OD600,Ecoli rRNA inh RFP,Beta cell apopt
CCN1CCCC1CNC(=O)c1ccc(Sc2ccccc2Cl)c([N+](=O)[O-])c1 (stereo not given),28,15,.,0.72,0.5,5.1,-11,-9,-2.5,9
Nc1nonc1C(=O)NCCN=Cc1cc(Cc2ccccc2)cc(Br)c1O,-28,.,.,0.59,-0.6,2.7,.,.,.,-3
COc1ccccc1NC(=O)C1CCCN(S(=O)(=O)c2ccccc2)C1 (stereo not given),15,-0.7,i,0.65,1.5,1.9,-13,-14,0.9,-1
N=C1SCC(=O)N1c1nc(-c2ccccc2)cs1,-25,.,.,0.7,-6.5,-13,.,.,.,-7
CC1CCCN(CCCNS(=O)(=O)c2ccc3c(c2)CCN3C(=O)C2CC2)C1 (stereo not given),19,1.1,i,0.71,-1.8,0.1,7,11,-2.9,2
CNC(=O)CCSc1ccc(C)cc1,-1,.,.,0.72,-0.9,4.5,.,.,.,-3
O=C1C2C(C(=O)N1CCN1CCN(Cc3ccc([N+](=O)[O-])cc3)CC1)[C@H]1C=C[C@@H]2C1 (stereo not given in full),-17,1.3,i,0.61,0.0,0.8,7,-6,3.0,-1
Oc1ccccc1Cn1c(-c2ccccc2O)nc2ccccc21,15,.,.,0.71,-0.2,-76,.,.,.,11
CCC(=O)Nc1ccc(C(=O)COC(=O)CCN2C(=O)C3CC=CCC3C2=O)cc1 (stereo not given),-12,-5.4,i,0.62,-0.1,2.2,9,16,-0.9,-4
Cc1c[n+]([O-])ccc1Oc1ccc([N+](=O)[O-])cc1,-23,1.3,i,0.64,1.7,1.5,10,10,-1.9,-1
c1ccc(Oc2cccc(CN3CCOCC3)c2)cc1,-9,.,.,0.67,0.4,5.2,.,.,.,-3
COCCNC(=O)CN(c1ccc(C)cc1)S(=O)(=O)c1ccccc1,-15,.,.,0.7,-0.1,5.5,.,.,.,.
COC(=O)c1ccccc1NC(=O)NCc1cccnc1,-10,.,.,0.64,0.6,0.0,.,.,.,-1
C=CC1=C2C=C(C3CC3)N(C3CC3)C=C2C(=O)C(C)(OC(=O)c2ccco2)C1=O (stereo not given),-2,1.4,i,0.7,0.1,4.0,3,18,0.4,-3
Cc1cccc(C)c1NC(=O)c1cccc(C(=O)Nc2c(C)cccc2C)n1,-4,1.2,i,0.69,0.3,4.5,-25*,-10*,-0.3*,-5
COc1ccc(NC2=CC(c3ccccc3)N(c3ccc(OC)cc3)C2=O)cc1 (stereo not given),2,0.2,i,0.68,-0.6,-29,0,5,1.1,1
COc1cnn(-c2cccc(C(F)(F)F)c2)c(=O)c1Cl,-18,0.6,i,0.69,0.5,2.0,9,6,-1.3,0
O=C1ON=C(c2ccccc2)/C1=C/c1ccccc1,-15,-1.0,i,0.7,-0.2,6.3,2,-3,-0.1,.
CC/C(C)=N/Nc1ccc(S(=O)(=O)N2CCCC2)cc1[N+](=O)[O-],10,4.3,i,.,0.0,.,7,-2,-2.5,1
O=C(Nc1nnc(C2CCCC2)s1)C1CCC1,-6,.,.,0.68,0.6,-0.1,.,.,.,-1
O=C(Nc1ccc2c(c1)OCO2)C1CC1,.,3.8,i,0.66,-0.2,3.5,4,18,-1.2,-1
Cc1cc(NCC(c2ccccc2)c2ccccc2)n2ncnc2n1,3,0.5,i,0.71,-0.7,5.7,-12,-7,-3.5,-5
O=C(c1ccc(-n2cncn2)c([N+](=O)[O-])c1)N1CCN(S(=O)(=O)c2ccc(F)c(F)c2)CC1,15,9.3,i,.,0.0,.,-3,2,-0.8,-3
O=C(c1cccnc1)N1CCCc2ccccc21,-12,.,.,0.68,-0.6,1.9,5,7,-1.5,-13
CCn1nc(C(=O)Nc2cc(Cl)ccc2-n2cncn2)c2ccccc2c1=O,-3,-1.0,i,0.63,-0.4,-11,14,5,0.5,5
CCOC(=O)C1CCCN(C(=O)c2ccc3[nH]c4c(c3c2)CC(C)CC4)C1 (stereo not given),.,2.7,i,0.69,-0.1,2.0,.,.,.,0
COc1ccc(C(=O)Nc2nc3cc(OC)c(OC)cc3c(=O)[nH]2)cc1,.,.,.,0.72,0.4,6.2,.,.,.,18
O=C(OCc1ccc(Cl)cc1)c1cnccn1,-3,.,.,0.71,-0.7,2.1,.,.,.,-2
CCc1c(O)nc(SCC(=O)Nc2ccc3c(c2)CCC3)[nH]c1=O,-6,.,.,0.79,-0.4,11,.,.,.,-4
Cc1ccc(NC(=O)NNC(=O)COc2ccc([N+](=O)[O-])cc2)cc1C,0,0.3,i,0.69,-0.4,2.5,7,10,2.1,3
SMILES,T cruzi repl,AF4-AF9 inh,FGF22 binding,E coli growth,A1 inh,UCH37 inh,Ecoli rRNA inh,Ecoli rRNA inh OD600,Ecoli rRNA inh RFP,Beta cell apopt
CC(=O)c1cccc(N(C(=O)c2cnccn2)C(C(=O)NCc2ccccc2)c2ccco2)c1 (stereo not given),5,.,.,0.73,-0.7,3.4,.,.,.,1
CCOc1ccccc1N(C(=O)CNS(=O)(=O)c1ccccc1)C(CC)C(=O)NCc1ccco1 (stereo not given),17,1.6,i,0.68,-0.6,2.4,-10,-12,3.4,-12
O=C(CN1C(=O)NC2(CCCC2)C1=O)OCCOc1ccc(Br)cc1,-20,2.2,i,0.67,-0.6,1.8,-4,-2,1.7,0
Cc1c(OCC(=O)N2C[C@H]3C[C@@H](C2)c2cccc(=O)n2C3)ccc2c3c(c(=O)oc12)CCC3,12,-0.3,i,0.72,0.5,-8.0,-2,11,-4.1,6
CCCCN(N=Nc1nonc1OC)c1nonc1OC,10,.,.,0.68,0.7,2.6,.,.,.,0
CC(=O)N1C(=O)/C(=C2\SC(=S)N(c3c(C)n(C)n(-c4ccccc4)c3=O)C2=O)c2ccccc21,-18,.,.,0.64,2.1,25*,.,.,.,-2
COC(=O)c1cc(-c2ccc(OC)cc2)on1,11,1.8,i,0.65,-0.6,2.7,9,1,-3.3,-3
COc1ccc(CCNC(=O)/C=C\c2ccccc2)cc1OC,3,-1.2,i,0.68,0.0,2.1,.,.,.,-7
CSCCC(NC(=O)c1ccco1)C(=O)NC1CCCCCC1 (stereo not given),-1,1.2,i,0.7,-0.5,2.1,4,-1,-1.6,1
CN(CC(=O)Nc1ccccc1Cl)C(=O)COC(=O)c1nc(Cl)ccc1Cl,-7,-4.9,+,0.67,2.1,2.7,-2,1,3.8,-5
O=C(CN1CCN(c2ncc(C(F)(F)F)cc2Cl)CC1)NC(=O)NCc1ccccc1,-10,.,.,0.71,-0.5,1.6,.,.,.,-2
COc1ccccc1N1CC(C(=O)Nc2nnc(SCC(=O)N3CCCC3)s2)CC1=O (stereo not given),-4,-3.0,i,0.66,0.5,1.4,17,14,4.2,0
Cn1cc(Cl)c(C(=O)Nc2nccs2)n1,-14,-0.8,i,0.67,-0.1,0.5,6,11,-0.7,-5
Cc1[nH]nc(-c2ccc(OCc3cnn(-c4ccccc4)c3)cc2O)c1Oc1ccccc1F,5,.,.,0.81,1.2,2.3,.,.,.,23
S=C(Nc1ccccc1)N1CCn2cccc2C1c1cccnc1 (stereo not given),31,12,i,0.65,1.0,2.6,13,3,1.2,2
O=C(CCc1c[nH]c2ccccc12)NCCc1ccc(O)cc1,-3,-1.4,i,0.69,0.3,4.9,0,1,-0.3,-7
